# RmlCD inh 1536: M. tuberculosis RmlC/RmlD inhibition; P9WH09+P9WH11; inhibition, % at 3.6 µM; 160,000 compounds, 0.03% hits; RmlC+RmlD coupled enzyme assay, percent inhibition; primary screen in compound mixtures; in the data active means inhibition mostly above about 34%, no sharp cut-off; only retested compounds are shown here; further: some results filed as inactive read as strong as hits
# Target sequence (P9WH09 whole entry, looked up): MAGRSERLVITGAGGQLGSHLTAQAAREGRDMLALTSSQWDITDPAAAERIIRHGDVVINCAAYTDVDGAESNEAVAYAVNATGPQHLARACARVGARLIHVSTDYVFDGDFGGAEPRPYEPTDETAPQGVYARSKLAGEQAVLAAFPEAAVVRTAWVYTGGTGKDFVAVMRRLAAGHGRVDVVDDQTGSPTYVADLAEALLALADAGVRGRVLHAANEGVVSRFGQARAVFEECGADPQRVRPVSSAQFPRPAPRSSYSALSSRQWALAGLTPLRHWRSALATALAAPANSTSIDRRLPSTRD
# Target sequence (P9WH11 whole entry, looked up): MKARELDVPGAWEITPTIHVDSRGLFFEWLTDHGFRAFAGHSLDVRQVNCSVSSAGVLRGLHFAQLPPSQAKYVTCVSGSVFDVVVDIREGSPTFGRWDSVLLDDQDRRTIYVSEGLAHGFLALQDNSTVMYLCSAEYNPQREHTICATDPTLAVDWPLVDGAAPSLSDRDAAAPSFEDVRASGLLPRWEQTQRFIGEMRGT
# RmlCD inh 1536 retest: also measured in RmlCD inh 1536; calls as there; inhibition, %; measured here: mean retest inhibition;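 single compounds in two wells; values far above 100% likely come from compound fluorescence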
# An asterisk follows results filed as active. The list is partial; the hit share may differ from the screen's.
Molecule,RmlCD inh 1536,RmlCD inh 1536 retest
O=C(Cc1ccc([N+](=O)[O-])cc1)N1N=C2CCCCC2C1(O)C(F)(F)F (configuration not stated),35,-10
CC12CCC(C(=O)Nc3ccccc3Br)(C/C1=N\O)C2(C)C (configuration not stated),81,9
C=CCNc1nnnc2c1sc1nc(N3CCOCC3)c3c(c12)CCCC3,88,5
CCC(=O)Nc1ccc(S(=O)(=O)Nc2ccc(Cl)nn2)cc1,54,5
Cc1ccccc1C([O-])=Nc1ccc[n+](-c2nc3ccccc3nc2NS(=O)(=O)c2ccccc2)c1,82,-11
O=S(=O)(Nc1ccccn1)c1cnc(Cl)c(Br)c1,32,-4
CC1CCCC(C)N1S(=O)(=O)c1ccc(S(=O)(=O)N2CCOCC2)cc1 (configuration not stated),44,-3
CCN(CC)CCCNC(=O)c1sc2ncn(CC(=O)Nc3ccc(C)c(Cl)c3)c(=O)c2c1C,59,-8
COc1ccccc1NC(=O)/C(C#N)=C/c1cc([N+](=O)[O-])ccc1N1CCCC1,37,-6
CCN(CC)CCn1c(=N)n(CC(=O)c2ccc(Br)s2)c2ccccc21,95,7
Cc1cccc(Nc2nc(N)nc(CCl)n2)c1C,46,-11
CC1CCCC(NC(=O)CCCn2c(=S)[nH]c3ccccc3c2=O)C1C (configuration not stated),31,11
Cc1cc([N+](=O)[O-])nn1Cc1ccc(C(=O)N/N=C/c2ccc(F)cc2)cc1,35,-3
O=C(COC(=O)c1ccc2[nH]c3c(c2c1)CCCC3)Nc1ccccc1,64,8
Cc1ccc(S(=O)(=O)N2CCN(Cc3nc4sc5c(c4c(=O)[nH]3)CCCC5)CC2)cc1,34,4
Nc1nc(SCC(=O)NC2CCCc3ccccc32)n[nH]1 (configuration not stated),59,-8
O=C1CCN(C(=O)c2cccs2)c2ccccc21,30,-1
COc1cc2c(cc1NC(=S)NC(=O)/C=C/c1ccco1)oc1ccccc12,64,0
O=C(Cn1c(=O)c(=O)n(Cc2ccccc2)c2ccc(Cl)cc21)Nc1cccc(F)c1,30,-5
O=C(N/N=C/c1ccco1)c1cc(=O)[nH]c2ccccc12,38,-3
CCOCC(=O)Nc1cccc(SC)c1,36,17
COc1ccc(-c2ncnc(C(F)(F)F)c2-c2csc(C)n2)c(O)c1,88,-20
O=C(CSc1ccccn1)Nc1ccc2ccccc2c1,38,4
CCN(CC)CCCNC(=O)c1cc2nc3c(c(C(F)(F)F)n2n1)CCc1ccccc1-3,57,10
COc1ccc(C(=O)C2CCCN(Cc3ccc(C)s3)C2)c(OC)c1 (configuration not stated),49,10

Molecule,RmlCD inh 1536,RmlCD inh 1536 retest
O=C(NNC(=S)Nc1ccc(Cl)c(Cl)c1)c1cccc([N+](=O)[O-])c1,81,-9
O=C(CCn1cnc2ncccc2c1=O)N1CCN(c2cccc(Cl)c2)CC1,51,-5
COc1ccccc1NS(=O)(=O)c1cc(NC(=O)c2cc3ccccc3oc2=O)ccc1C,31,-4
Cc1ccsc1CN1CCC(C(=O)NCc2ccccc2Cl)CC1,57,13
Cc1ccccc1NS(=O)(=O)c1ccc(C)c(NS(C)(=O)=O)c1C,31,2
CC(C)(C)C(=O)Cn1c(=O)n(-c2ccc(F)cc2F)c(=O)c2sccc21,34,0
CCOC(=O)c1cc2c(nc1NC(=S)NCc1ccccc1)CCCC2,64,4
COc1ccc(/C=C/C(=O)c2cc3cccc(OC)c3oc2=O)cc1,38,8
Cc1c(Cl)cccc1N(CC(=O)NC1CCCCC1)S(C)(=O)=O,61,0
COc1cc(OC)c(OC)cc1CNCCSc1nnnn1C,45,4
CC(=O)N(CCC(c1ccco1)C(C)C)Cc1ccc(OC(C)C)cc1 (configuration not stated),45,-17
CC1CCN(S(=O)(=O)c2ccc3nc(-c4ccccn4)cc(C(=O)NCCN(C)Cc4ccccc4)c3c2)CC1,94,0
CCOC(=O)c1cc(NC(=O)Nc2nc3ccccc3s2)c(C)nc1C,83,9
O=C(Nc1ccc2ncccc2c1)c1cc(Cl)ccc1Cl,46,3
CC(C)n1c(O)c(N=NC(=O)c2ccccc2NS(=O)(=O)c2cccs2)c2ccccc21,56,11
CC(NC(=O)CSc1n[nH]c(=O)[nH]c1=O)C1CC2CCC1C2 (configuration not stated),65,-8
COC(=O)C(=CC(=CN(C)C)C=C(C(=O)OC)C(=O)OC)C(=O)OC,37,-2
CCCC(=O)NC(c1ccccc1Cl)c1c(O)ccc2ccccc12 (configuration not stated),33,5
O=C1Nc2ccccc2C1(O)Cc1ccccn1 (configuration not stated),37,5
c1csc(-c2nc(-c3ccc(-c4ccon4)s3)no2)c1,43,-37
NS(=O)(=O)c1ccc(CCNC(=O)CSc2nc3ccsc3c(=O)n2CCCCCC(=O)O)cc1,66,-8
Cc1c(Nc2cc(=O)oc3ccccc23)c(=O)n(-c2ccccc2)n1C,39,0
Cc1c(-c2ccc(Cl)cc2)[n+](=O)c2c(n1[O-])CCCC2,64,10
CCSc1nnc(-c2cc(Br)ccc2NC(C)=O)c(=O)[nH]1,33,4
C(=N\n1cnnc1)/c1cn(Cc2ccccc2)c2ccccc12,45,-2

Molecule,RmlCD inh 1536,RmlCD inh 1536 retest
COc1cc(-c2nnc(SCC(=O)N(C)C3CCS(=O)(=O)C3)o2)cc(OC)c1OC (configuration not stated),35,-34
CCN1C(=O)C(O)(CC(=O)c2ccc3c(c2)OCCO3)c2ccccc21 (configuration not stated),40,-7
COc1ccc(/C=N/NC(=S)NC2CCS(=O)(=O)C2)cc1 (configuration not stated),66,-6
CO/N=C(\C)c1ncc(C(F)(F)F)cc1N1CCOCC1,61,-12
COc1ccc(NC(=O)C2CCN(C(=O)c3ccccc3)CC2)c(OC)c1,72,-3
CCN1CCN(Cc2cc(=O)oc3ccc(C)cc23)CC1,50,-4
COc1ccc(NC(=S)Nc2cc(C)cc(C)n2)cc1OC,38,6
CCCCCC(=O)NNC1=NCC(Cc2ccccc2)S1 (configuration not stated),31,-24
Cc1cccc(N2CC(C(=O)O)CC2=O)c1C (configuration not stated),37,-33
FC(F)(F)c1cnc(-c2cnc(-c3ccccn3)nc2)c(Cl)c1,44,-10
CCN(CC)CCNC(=S)Nc1ccc(Cl)cc1,109,-4
CCc1cccc(C)c1NC(=S)N(CCN(C)C)Cc1cccs1,32,-12
CN(c1ccccc1)S(=O)(=O)c1cccc(NC(=O)Cn2cnc3c2c(=O)n(C)c(=O)n3C)c1,32,-24
CCOC(=O)Cn1nc(-c2ccccc2)nc1-c1ccccc1,52,6
O=C(CN1CCOCC1)N/N=C/c1cc2ccccc2nc1Cl,36,-7
COc1ccc(S(=O)(=O)Nc2cccc(F)c2C)cc1C(=O)N1CCOCC1,56,11
Cc1ccc(CCNC(=O)C2CCN(C(=O)N(C)C)CC2)cc1,35,5
Cc1ccc(C(=O)N/C(=C/c2ccco2)C(=O)NCCCn2ccnc2)cc1,95,4
COc1ccc(Nc2nc(-c3cccc([N+](=O)[O-])c3)nc3ccccc23)c(OC)c1,73,-27
CC(OC(=O)c1ccc(S(=O)(=O)N(C)C)cc1)C(=O)Nc1ccc(Cl)cn1 (configuration not stated),47,-11
CC(=O)c1cccc(NC(=O)c2ccc3c(=O)n4c(nc3c2)CCCCC4)c1,34,24
N#Cc1cccnc1N1CCN(C(=O)c2ccco2)CC1,110,10
CC1(C)CC(=O)C2=C(C1)OC(N)=C(C#N)C2c1cn(-c2ccccc2)nc1-c1ccc(F)cc1 (configuration not stated),44,-17
CCCCn1c(O)c(C(=O)/C=C/c2c[nH]c3ccccc23)c(=O)[nH]c1=O,31,21
O=C(CN1CCN(Cc2ccccc2Cl)CC1)N=Nc1c(O)[nH]c2ccccc12,69,-13

# 14 structures already listed, ordered by formula weight, low to high:
Molecule,RmlCD inh 1536,RmlCD inh 1536 retest
Cc1cccc(N2CC(C(=O)O)CC2=O)c1C (configuration not stated),37,-33
N#Cc1cccnc1N1CCN(C(=O)c2ccco2)CC1,110,10
CCN(CC)CCNC(=S)Nc1ccc(Cl)cc1,109,-4
CCCCCC(=O)NNC1=NCC(Cc2ccccc2)S1 (configuration not stated),31,-24
COc1ccc(NC(=S)Nc2cc(C)cc(C)n2)cc1OC,38,6
COc1ccc(/C=N/NC(=S)NC2CCS(=O)(=O)C2)cc1 (configuration not stated),66,-6
CCN1C(=O)C(O)(CC(=O)c2ccc3c(c2)OCCO3)c2ccccc21 (configuration not stated),40,-7
CCc1cccc(C)c1NC(=S)N(CCN(C)C)Cc1cccs1,32,-12
CC(=O)c1cccc(NC(=O)c2ccc3c(=O)n4c(nc3c2)CCCCC4)c1,34,24
Cc1ccc(C(=O)N/C(=C/c2ccco2)C(=O)NCCCn2ccnc2)cc1,95,4
COc1ccc(Nc2nc(-c3cccc([N+](=O)[O-])c3)nc3ccccc23)c(OC)c1,73,-27
CC(OC(=O)c1ccc(S(=O)(=O)N(C)C)cc1)C(=O)Nc1ccc(Cl)cn1 (configuration not stated),47,-11
CC1(C)CC(=O)C2=C(C1)OC(N)=C(C#N)C2c1cn(-c2ccccc2)nc1-c1ccc(F)cc1 (configuration not stated),44,-17
COc1cc(-c2nnc(SCC(=O)N(C)C3CCS(=O)(=O)C3)o2)cc(OC)c1OC (configuration not stated),35,-34

# More entries follow.
Molecule,RmlCD inh 1536,RmlCD inh 1536 retest
COc1ccc(Cl)cc1NC(=O)COC(=O)CCCN1C(=O)c2ccccc2C1=O,56,-2
Cc1nc2ccc(NC(=O)c3ccco3)cc2nc1C,103,8
NC(=O)c1cnn(C2CCS(=O)(=O)C2)c1 (configuration not stated),55,-3
O=C(O)c1ccccc1C(=O)Nc1cccc([N+](=O)[O-])c1,36,-16
Clc1ccc2c(N/N=C/c3cccnc3)ccnc2c1,38,11
CCOc1ccc(Br)cc1S(=O)(=O)NC(=O)c1ccccc1,65,-9
CCN(C(=O)COC(=O)C1CCN(S(=O)(=O)c2cccs2)CC1)c1ccccc1,34,-5
CCn1ncc(CN2CCCC(CNC(=O)c3ccc(F)cc3)C2)c1C (configuration not stated),39,10
Cc1ccccc1NC(=O)c1cccc2nc3ccccc3nc12,72,-9
O=C(NCCc1ccccn1)c1ccc(OC(F)F)cc1,53,-4
[O-]/C(=C(\C(=S)NCc1ccc2c(c1)OCO2)[n+]1ccccc1)c1ccc(Cl)s1,35,-8
Cc1cccc(N/C(N)=N/c2nc(C)c(Cc3ccccc3)c(=O)[nH]2)c1,33,5
CCC(=O)Oc1ccc(NC(=O)c2ccco2)cc1,36,-3
c1ccc(CC2CCN(Cc3ccccn3)CC2)cc1,49,-1
Nc1ncnc2c1ncn2C1OC(CO)C(O)C1O (configuration not stated),47,8
CS(=O)(=O)N1CCCC(C(=O)N2CCOCC2)C1 (configuration not stated),32,5
C=CCCCCCCCCC(=O)Nc1ncccn1,79,-1
NC(=O)c1nsc(C(=O)N(c2ccccc2)C(C(=O)NCC2CCCO2)c2cccs2)c1N (configuration not stated),30,-20
O=c1c(C(c2ccc(F)cc2)c2c(O)nc3n(c2=O)CCS3)c(O)nc2n1CCS2,37,-8
COc1ccc(NC(=O)C2CC(=O)N/C(=N/N=C/c3ccccc3)S2)cc1 (configuration not stated),64,6
O=C(Nc1nc2ccccc2s1)c1cc(-c2ccco2)nc2ccccc12,37*,36*
Cc1ccc(S(=O)(=O)N2CCCCC2)cc1NC(=O)CCOc1ccccc1,78,-10
COc1ccccc1NC(=O)c1ccc(NC(=O)CN2CCN(C(=O)c3ccco3)CC2)cc1,53,-1
COc1cccc(N2C(=O)NC(=O)/C(=C/c3ccc4c(c3)Cc3ccccc3-4)C2=O)c1,47,16
O=S(=O)(c1cccc(-c2nnc3n2CCCCC3)c1)N1CCOCC1,31,-3

Molecule,RmlCD inh 1536,RmlCD inh 1536 retest
CSc1ccc(/C=N/N2CCN(Cc3ccc(C)cc3C)CC2)cc1,52,9
COc1ccc(COC(=O)N/N=C(\C)CC(=O)Nc2ccc(Cl)cn2)cc1,70,5
O=C(NC(Cc1c[nH]c2ccccc12)C(=O)NCCCN1CCOCC1)c1cccs1 (configuration not stated),51,-2
CCN(C(=O)Cn1cc(C(F)(F)F)ccc1=O)c1c(N)n(Cc2ccccc2)c(=O)[nH]c1=O,30,-4
NC(=O)c1ccc(Sc2nnc(-c3cccs3)n2CC2CCCO2)c([N+](=O)[O-])c1 (configuration not stated),79,9
O=C1CN(Cc2ccccc2)C(=NCc2ccco2)S1,49,9
CS(=O)(=O)c1ncc(CO)n1Cc1ccccc1,37,7
C/C(=N\O)c1cccc(Br)c1,36,4
CCOC(=O)CSc1cc(-c2ccccc2)nc2ncnn12,31,-4
Cc1nnsc1-c1nnc(SCC(=O)c2ccccc2)n1C1CC1,43,2
O=C(NCCc1ccc(Cl)cc1)c1cc2ccccn2n1,48,8
CCOc1ccc(C(=O)Nc2cccc3nsnc23)cc1[N+](=O)[O-],34,-17
CCOC(=O)c1ccc(NC(=O)CSc2nnc(NC(=O)c3ccc(S(=O)(=O)N4CCOCC4)cc3)s2)cc1,69,4
O=[N+]([O-])c1cccc(/C=N/Nc2cc(Cl)nc(-c3ccccc3)n2)c1,34,-20
C=CCN1C(=O)C(CC(=O)O)SC1=Nc1c(C)n(C)n(-c2ccccc2)c1=O (configuration not stated),34,0
CCCNC(=O)c1c(N)n(Cc2ccc3c(c2)OCO3)c2nc3ccccc3nc12,52,-414
COc1ccccc1-c1ccc(SCc2ccc(F)cc2)nn1,32,-6
O=C(CN1C(=O)C2CC=CCC2C1=O)N1CCN(c2ccc([N+](=O)[O-])cc2)CC1 (configuration not stated),44,2
CC(NC(=O)COc1ccc(-c2nnco2)cc1)c1ccc(Cl)cc1Cl (configuration not stated),37,0
COc1ccc(C(=O)OCC(=O)Nc2sccc2C(N)=O)cc1OC,40,-7

# Screening results as filed in PubChem.
